High-throughput results from PubChem BioAssay.
Vaccinia pol inh = vaccinia E9 polymerase processive synthesis inhibition | in vitro processive DNA synthesis, absorbance read-out; stronger effect = lower value; some inactives read as strong as hits | normalized absorbance, % (no concentration beside the values) | actives 0.94% (n = 46,000) | AID 493162;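 active means replicate mean up to 90% and picked by the depositor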;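 further: 100% = median of the test wells of a plate; 100 nL library stock went into each well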
Numbers without * were called inactive.

SMILES	Vaccinia pol inh
COC(=O)CNC(=O)c1ccn[nH]1	100
CCOC(=O)c1cnc2ccccc2c1NCCc1ccccc1	100
COC(=O)c1ccc(C(=O)Nc2nc(-c3ccncc3)cs2)cc1	101
O=C(CCn1c(=O)oc2ccccc21)NCc1ccco1	102
CNC(C)Cc1ccc2c(c1)OCO2 (stereo not given)	99
COC(=O)CSC1=C(C#N)C2(CCCCC2)C(c2nc(-c3ccccc3)cs2)C(N)=N1 (stereo not given)	97
O=C(Nc1nc2c(Cl)cccc2s1)C1CC1	101
O=C(/C=C/c1ccc(-c2ccc(F)cc2)o1)N1CCCC1	92
COc1ccc(C(=O)c2c(N)sc3c2CCN(Cc2ccccc2)C3)cc1	99
S=C1NCN(CCc2ccccc2)CN1	100
Cn1c(CN2CCOCC2)nnc1SCc1ccc(Cl)cc1	105
O=C(Nc1ccc(Br)cc1C(=O)c1ccccc1)c1ccco1	96
COC(=O)C1=C(O)/C(=C/c2ccc(O)cc2)SC1=Nc1ccccc1	100
O=C(Nc1ccc(F)cc1)C1CC(=O)N(Cc2ccco2)C1 (stereo not given)	89
CC(C(=O)Nc1ccccn1)c1ccccc1 (stereo not given)	102
O=C(Oc1cccc2ccccc12)c1ccccc1	100
OC1C2CN3CCN(C2)CC1(c1ccccc1)C3 (stereo not given)	98
COc1ccc(C2CC(c3ccc(Br)cc3)=NN2C(=O)CCN2CCOCC2)cc1 (stereo not given)	100
CC(C)(C)C(=O)Nc1sc2c(c1C(=O)O)CCCC2	93
Nc1ncnc2c1nc(SCC(=O)O)n2Cc1ccccc1	101
CS(=O)c1ccc2c(c1)NC(=O)CS2 (stereo not given)	103
Cn1c(=O)c2[nH]cnc2n(C)c1=O	99
Cc1ccc(S(=O)(=O)N(C(=O)C2CCCCC2)c2ccc3oc(=O)sc3c2)c(C)c1	95
O=C(NCCO)c1cccc(C(=O)NCCO)c1	94
Cc1cc2c(cc1S(=O)(=O)NC(C)(C)C)OCC(=O)N2	90
Next section:
SMILES	Vaccinia pol inh
CC1(C)CC(=O)C=C(NCCCN2CCOCC2)C1	100
C=CCOc1cc(C)nc(N2CCOCC2)n1	100
O=C(CC1Nc2cccc3cccc(c23)NC1=O)Nc1ccccc1 (stereo not given)	98
Cn1ncc(Br)c1NC(=O)CSc1ccc(Cl)cc1	92
CC(C)NC(=O)C1(c2ccccc2)CCOCC1	99
Oc1c(CN2CCOCC2)ccc2cccnc12	74
O=C(Nc1ccc(N2CCOCC2)c(Cl)c1)c1cccc(Cl)c1	92
COc1ccc(CSc2nc3ccccc3s2)cc1OC	100
Cc1cc(=O)oc2c3c(ccc12)O/C(=C\c1ccc(Cl)cc1)C3=O	102
CC(C)(C)C1=CC(=Nc2ccccc2N)C=C(C(C)(C)C)C1O (stereo not given)	100
CCC(C)(C#CCN1CCN(C)CC1)OC1CCCCO1 (stereo not given)	102
Cc1ccccc1NS(=O)(=O)N1CCCCC1	114
CCn1c(=O)cc(SCC(=O)NCC2(c3ccccc3)CCCC2)c2ccccc21	100
O=C(O)C1CC=CCC1C(=O)Nc1ccc(Cc2ccncc2)cc1 (stereo not given)	101
O=C(c1ccco1)N1CCN(c2ccc(C(F)(F)F)cn2)CC1	98
O=C1NC(=S)NC(=O)C1=Cc1ccccc1	98
CCCNC(=O)c1cnc(N2CCCC2)nc1	90
Cc1ccccc1-n1c(SCC(N)=O)nnc1-c1ccc(Cl)cc1	96
O=C(O)c1cc2cc(Cl)ccc2oc1=O	90
O=C(CC12CC3CC(CC(Br)(C3)C1)C2)OCC(=O)N1CCCC1	103
COc1ccccc1Oc1ccc(N/C=C/C(=O)c2ccco2)cc1	100
CN(C)S(=O)(=O)c1ccc2c(c1)c(=O)c(C(=O)NCc1ccccc1)cn2C	100
Cc1c(Cl)cccc1NC(=O)c1ccc(N2C(=O)c3ccccc3C2=O)cc1	102
Cc1cccc(-c2cc(=O)c3cc(C)ccc3o2)c1	104
CC1(C)CC(=O)C2=C(C1)NCN(Cc1ccc3c(c1)OCO3)C2	100
(more compounds)
SMILES	Vaccinia pol inh
CCCC(=O)Nc1nnc(Cc2ccc(Cl)cc2)s1	101
C/C(=N\c1ccccn1)C1=C(O)c2ccccc2C1=O	102
Brc1ccc(-n2nnnc2/C=C/N2CCCCC2)cc1	103
Cc1ccccc1CSC(SCc1ccccc1C)=C(C#N)C(=O)NCc1ccco1	101
N#C/C(=C\c1cccc(O)c1)C(=O)O	99
O=C(O)C1C2C=CC(C2)C1C(=O)OCC1CCCO1 (stereo not given)	100
CCCCN(C)C(=O)c1cc2c(Cl)nc3ccccc3c2s1	101
COc1ccc(CNCC2(c3ccccc3)CCCC2)cc1	100
CC(C)(C)c1ccc(Oc2ccc(NC(=O)CCCC(=O)O)cc2)cc1	100
COC(=O)C1=C(NC(=O)CCCCl)CCS1	98
COc1ccc(Cn2c(SCc3cccc(C(F)(F)F)c3)nc3ccncc32)cc1	104
O=C(COC(=O)C1CC(O)CN1C(=O)Oc1ccccc1)c1ccc(-c2ccccc2)cc1 (stereo not given)	100
N#Cc1nc(-c2ccc(Cl)cc2)oc1NCc1ccco1	105
O=C1N(c2ccccc2)C(c2ccc(Br)cc2)C12CCCCC2 (stereo not given)	100
O=C1[C@@H]2CSC(c3ccc(F)cc3)N2C(=O)N1c1ccccc1 (stereo not given in full)	76
O=C(O)Cc1csc2ccc(Cl)cc12	93
CC(=O)Nc1sc(N)nc1-c1ccccc1	103
CCCCC1(C(=O)OCC)CC(C)(c2csc(N)n2)OC1=O (stereo not given)	102
CC1(c2ccc3noc(-c4ccccc4)c3c2)OCCO1	99
Fc1ccc(-c2csc(N3CCN(C/C=C\c4ccccc4)CC3)n2)cc1	102
Cc1cccc(CSc2nc3ccncc3n2CC(=O)N2CCCC2)c1	83
O=C(c1cc(-c2ccc(F)cc2)nc2ccccc12)N1CCOCC1	97
COC(=O)c1cc(S(=O)(=O)N2c3ccccc3CC2C)c[nH]1 (stereo not given)	100
Cn1c(SCC(=O)NCc2ccccc2)nnc1-c1c[nH]c2ccccc12	101
COc1ccc(C(=O)CC(C(=O)c2ccccc2)c2ccccc2)cc1 (stereo not given)	105

Reformatted: five of the compounds above
| canonical_smiles | Vaccinia pol inh |
| --- | --- |
| CCCCC1(C(=O)OCC)CC(C)(c2csc(N)n2)OC1=O (stereo not given) | 102 |
| CC1(c2ccc3noc(-c4ccccc4)c3c2)OCCO1 | 99 |
| N#C/C(=C\c1cccc(O)c1)C(=O)O | 99 |
| Cc1ccccc1CSC(SCc1ccccc1C)=C(C#N)C(=O)NCc1ccco1 | 101 |
| CCCC(=O)Nc1nnc(Cc2ccc(Cl)cc2)s1 | 101 |

(listing goes on)
SMILES	Vaccinia pol inh
COc1ccc(CC(=O)Nc2cc(C)on2)cc1OC	104
CCc1c(C)c(C#N)c2nc3ccccc3n2c1NCCN(C)C	93
NNC(=S)NCc1ccc(F)cc1	102
O=c1c2c(nc3nc(NCc4c(F)cccc4Cl)[nH]n13)CCC2	96
CC1=Nc2cc(C(=O)O)ccc2Sc2c(C)ccc(C)c21	90
COCCN1C(=O)/C(=C2/C(=O)N(OC)c3ccccc32)SC1=S	101
Cc1cccc(C)c1Nc1nc2c(C)cc(C)c(C)c2s1	98
O=C(c1ccc(Cl)cc1)c1oc2ccccc2c1-c1cnn(-c2ccccc2)c1	100
Cn1c(SCc2ccc(F)cc2)nc2ccc(C(=O)NCCc3ccc(Cl)cc3)cc21	88
CCCn1c(=S)[nH]c2cc(C(=O)NCc3ccccc3)ccc2c1=O	102
COc1cccc(N2CCN(C(=O)c3ccc(/C=C4\Oc5ccccc5N(C)C4=O)cc3)CC2)c1	98
Clc1ccc(-c2cc(C3CCNCC3)[nH]n2)cc1	88
Cc1nc2c(C(=O)NC(C)C)cnn2c(C)c1Cc1c(F)cccc1Cl	101
COc1ccc(C(=O)Cn2c(=O)c(CCC(=O)O)nn3c4ccccc4nc23)cc1OC	100
CCOc1ccc2c(c1)sc(=NC(=O)CCOc1ccccc1)n2C	100
O=c1c2ccccc2c(C=NCc2cccnc2)c(O)n1-c1ccccc1C(F)(F)F	104
Clc1nc2ncccc2nc1-c1ccccc1	102
O=C(Nc1c2c(nn1-c1cccc(Cl)c1)CS(=O)C2)c1cccc(Br)c1 (stereo not given)	100
CCN(Cc1cc(Cl)cc(Cl)c1)C(=O)c1cnc(OC)cc1C(F)(F)F	98
C/C(=N\O)c1ccc(Cl)cc1	102
COc1ccccc1NCn1c(=O)sc2ccccc21	100
Cc1cc2nc(SCCOC(=O)Nc3ccc(Cl)cc3)nc(C)c2cc1C	100
Cc1ccc(-c2csc(=S)n2CC(=O)O)cc1	95
Cc1nn(-c2ccccc2)nc1C(=O)Oc1c(Cl)cccc1Cl	83
Cc1ccc2cc(NC(=O)C3CC(=O)N(Cc4ccc(F)cc4)C3)ccc2n1 (stereo not given)	110

An excerpt of the results above:
SMILES	Vaccinia pol inh
C/C(=N\O)c1ccc(Cl)cc1	102
COc1ccccc1NCn1c(=O)sc2ccccc21	100
Cc1cc2nc(SCCOC(=O)Nc3ccc(Cl)cc3)nc(C)c2cc1C	100
Cc1ccc(-c2csc(=S)n2CC(=O)O)cc1	95

(continued)
SMILES	Vaccinia pol inh
COc1ccc(CN2C(=O)c3ccccc3CC2(C)C(=O)NC2CCCCC2)cc1 (stereo not given)	98
CCCOc1ccc(NC(=O)C2CC(=O)N(C(C)C)C2)cc1 (stereo not given)	108
Cc1cc2[nH]c(=O)c(=O)[nH]c2cc1S(=O)(=O)N(C)C1CCCCC1	105
CCOc1cc2oc(=O)cc(C)c2cc1OCC	98
Fc1ccc(-c2ccc(/C=N/n3cnnc3)[nH]2)cc1	85
COC(=O)Nc1nc2ccc(C(=O)c3cccs3)cc2[nH]1	100
COc1cc(C(O)c2cc(C(F)(F)F)cc(C(F)(F)F)c2)cc(OC)c1OC (stereo not given)	111
OCCNC(=S)NC12CC3CC(CC(C3)C1)C2	99
N=C(N)SCc1cn(-c2ccccc2)nc1-c1ccc(Br)cc1	102
Cc1ccc(NC(=O)CCNS(=O)(=O)c2ccc3c(c2)CCC(=O)N3)cc1	102
CN(C)C(=O)Cc1c[nH]c2ccccc12	100
O=C1NC(=O)C2(COC(c3ccccc3)OC2)S1 (stereo not given)	100
CS(=O)(=O)N1CCSC1c1cccc(Cl)c1 (stereo not given)	102
O=C1NC(=S)SC1CNc1ccccc1 (stereo not given)	96
COc1ccc2c(c1)sc(=NC(=O)CSCC(=O)Nc1nc(-c3ccccc3)cs1)n2C	93
O=S(=O)(Nc1ccc(-c2ccno2)cc1)c1ccc2[nH]c3c(c2c1)CCCC3	100
CC(C)(C)S(=O)(=O)c1ccc(-c2ccccc2)cc1	100
COc1ccc(C(=O)NCc2nnc(SC(C)C)n2-c2ccccc2)cc1	100
COC(=O)c1sccc1S(=O)(=O)N1CCN(C2c3ccccc3-c3ccccc32)CC1	106
O=C1CN(/N=C/c2ccc(-c3ccc([N+](=O)[O-])cc3)o2)C(=O)N1	100
NC(=O)C1CCN(C2CCN(C(=O)c3cccn4c(=O)c5ccc(Cl)cc5nc34)CC2)CC1	101
N#CC1(c2ccccc2)CCN(S(=O)(=O)c2ccc(OC(F)(F)F)cc2)CC1	99
COc1cccc(NC(=S)NN)c1	104
Cc1cc(-n2c(=S)sc3c(=O)n(-c4ccc(F)cc4)c(SCC#N)nc32)ccc1Cl	100
O=C1c2cccc3cccc(c23)C(=O)N1NCCO	80*

Quoted from the listing:
Vaccinia pol inh with `O=S(=O)(Nc1ccc(-c2ccno2)cc1)c1ccc2[nH]c3c(c2c1)CCCC3` → 100
Vaccinia pol inh with `O=C1NC(=S)SC1CNc1ccccc1` (stereo not given) → 96
Vaccinia pol inh with `COc1cc(C(O)c2cc(C(F)(F)F)cc(C(F)(F)F)c2)cc(OC)c1OC` (stereo not given) → 111
Vaccinia pol inh with `CS(=O)(=O)N1CCSC1c1cccc(Cl)c1` (stereo not given) → 102
Vaccinia pol inh with `N#CC1(c2ccccc2)CCN(S(=O)(=O)c2ccc(OC(F)(F)F)cc2)CC1` → 99
Vaccinia pol inh with `COC(=O)Nc1nc2ccc(C(=O)c3cccs3)cc2[nH]1` → 100
Vaccinia pol inh with `Cc1cc2[nH]c(=O)c(=O)[nH]c2cc1S(=O)(=O)N(C)C1CCCCC1` → 105
Vaccinia pol inh with `O=C1c2cccc3cccc(c23)C(=O)N1NCCO` → 80*

Later entries
SMILES	Vaccinia pol inh
CC(C)n1c(CCCNC(=O)C(C)(C)C)nc2ccccc21	100
CCn1ncc(/C=N/O)c1C	99
CC1(C)OC(c2ccccc2)=NC1=O	100
O=C(COC(=O)c1cc2ccccc2o1)c1ccc(Br)cc1	95
CCc1ccc(C2=Nn3c(C)nnc3SC2)cc1	99
CCOc1ccc(-c2cc(C(=O)NCC3COc4ccccc4O3)c3ccccc3n2)cc1 (stereo not given)	104
Cc1cccc(OCC(O)CN2CCCCCC2)c1C (stereo not given)	94
Cc1ccc2c(c1)c1c(n2CCN(Cc2ccccc2)Cc2ccccc2)C(=O)CCC1	101
COc1ccc(C2c3c(oc4ccccc4c3=O)C(=O)N2CCCOC(C)C)cc1 (stereo not given)	102
Clc1ccc(OCc2nc(-c3ccccc3)no2)cc1	97
Cc1c(-c2ccccc2)[n+](=O)c(-c2ccc(Br)cc2)c(C)n1[O-]	100
CCOc1ccc(NC(=O)CCCN2C(=O)/C(=C\c3ccco3)SC2=S)cc1	99
CCOC(=O)C1=C(CN2CCc3ccccc32)NC(=O)NC1c1ccccc1 (stereo not given)	102
CCOc1cc(CO)ccc1OCC(=O)N1CCCCC1	101
CCCCCc1cc(O)c2c(c1)OC(C)(C)C1CCC(C)=CC21 (stereo not given)	100
COC(=O)C1=C(C)NC2=C(C(=O)c3ccccc32)C1c1ccc(OC)cc1 (stereo not given)	101
COc1cc(C)c(C(C)C)cc1S(=O)(=O)N1CCCC1	98
O=C(CCC(=O)c1ccc(F)cc1)Nc1cccc(Br)c1	95
O=C1NC(=Nc2ccccc2Br)S/C1=C/c1cccs1	92

The list is partial. The share of hits here may be higher or lower than overall.
